PKD1 kinase inh = PKD1 (human) kinase inhibition | Q15139 | PKD1 kinase fluorescence polarization assay | inhibition, %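 (about 10 µM by stock and volumes)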 | hit rate 0.056% among 200,000 | AID 797;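 active = inhibition of 50% or more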;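 also: controls were vehicle for no effect and a reference inhibitor for full effect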
Target sequence (Q15139 whole entry, looked up): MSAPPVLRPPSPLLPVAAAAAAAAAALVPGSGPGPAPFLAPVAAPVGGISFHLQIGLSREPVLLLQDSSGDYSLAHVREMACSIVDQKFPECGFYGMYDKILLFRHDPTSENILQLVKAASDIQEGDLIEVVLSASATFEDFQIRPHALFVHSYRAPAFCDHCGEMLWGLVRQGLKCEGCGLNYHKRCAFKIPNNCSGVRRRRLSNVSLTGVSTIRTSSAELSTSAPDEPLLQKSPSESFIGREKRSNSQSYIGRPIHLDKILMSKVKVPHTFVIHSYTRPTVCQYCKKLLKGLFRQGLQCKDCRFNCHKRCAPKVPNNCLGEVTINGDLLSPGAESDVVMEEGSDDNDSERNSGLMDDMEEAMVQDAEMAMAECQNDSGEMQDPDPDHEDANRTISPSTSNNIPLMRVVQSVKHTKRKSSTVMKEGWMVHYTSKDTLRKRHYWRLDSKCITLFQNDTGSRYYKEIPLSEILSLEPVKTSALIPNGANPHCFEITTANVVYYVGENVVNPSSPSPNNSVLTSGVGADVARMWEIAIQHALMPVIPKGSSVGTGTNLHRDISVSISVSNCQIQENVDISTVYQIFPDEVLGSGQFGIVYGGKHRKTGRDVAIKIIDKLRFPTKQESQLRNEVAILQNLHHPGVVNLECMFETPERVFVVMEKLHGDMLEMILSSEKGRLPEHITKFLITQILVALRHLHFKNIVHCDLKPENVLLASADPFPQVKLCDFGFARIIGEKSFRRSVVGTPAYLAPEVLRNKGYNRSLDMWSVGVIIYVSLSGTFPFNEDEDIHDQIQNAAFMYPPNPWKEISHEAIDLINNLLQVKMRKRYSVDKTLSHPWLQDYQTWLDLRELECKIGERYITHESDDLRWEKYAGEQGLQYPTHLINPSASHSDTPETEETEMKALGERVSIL
Insulin prom inh = TRM-6 insulin promoter activity inhibition. hit rate 0.9% among 130,000. TRM-6 cells (human fetal islet line), insulin promoter-eGFP reporter, imaging; reporter expression induced with tamoxifen. inhibition, % at 2 µM. AID 1273;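 active = inhibition above the mean plus 3 SD, with well images judged a real hit on visual review, cut at about 60% in these data, passing the limit was not always enough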
RGS16-Gao HTS = modulates binding between human RGS16 and Galphao. hit rate 0.38% among 220,000. bead-based flow cytometry RGS16-Galphao binding, fluorescence; actives lie on both sides. O15492+P09471. AID 1441. binding response (% of control), % at 10 µM;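 active = below 25% or above 175%, edge rows of some plates excepted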;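 also: Galphao activated by GDP with aluminum fluoride before binding; 100% = wells without compound and 0% = beads without RGS; some results beyond the cut were filed as inactive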
GALR2 ag = activates the human galanin receptor 2. O43603. GALR2-expressing cells, agonist activation read-out. activation, %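 (tested at 5 µM)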. hit rate 0.48% among 140,000. AID 803;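 active = above mean plus 3 SD of all compounds, about 5% in these data, not always enough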;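 also: 0% = vehicle buffer wells and 100% = reference agonist at full effect; tested in CHO reporter cells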
HSV replic up = HSV replication enhancement; HSV replication augmentation in cells, fold increase; maximum fold increase; hit rate 0.005% among 220,000; AID 1956;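 active = peak rise of 1.5-fold or more in the series; tested in PC3 cells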;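 also: first round at 10 µM; read as green reporter fluorescence; hits show the peak of a series up to 25 µM; 1 = signal of infected wells without compound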
Insulin prom inh cell count = second read-out of Insulin prom inh, no call of its own (marks repeat the call); normalized cell count, %; measured here: cell count, toxicity; reference of the scale not given here;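 cells exposed to compound for 48 h; stained nuclei by imaging scaled within each plate; lower means fewer cells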
HSV replic up primary fold = also measured in HSV replic up; calls as there; fold increase; compound at 10 µM; measured here: primary screen fold increase 10 uM; tested in PC3 cells;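 GFP signal in the first replicate; 1 = infected wells without compound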
Active calls of the source: *; i = inactive; nt = no result given; [ ] = another dose, or the depositor's remark. No enrichment for hits, and some 1.1% of all compounds hit somewhere here.

SMILES	PKD1 kinase inh	Insulin prom inh	Insulin prom inh cell count	RGS16-Gao HTS	GALR2 ag	HSV replic up	HSV replic up primary fold
Clc1ccc(Br)cc1-c1nc(-c2ccncc2)no1	-6	31	57	72	-0.5	i	1.2
O=C1c2cccc3cccc(c23)C(=O)N1CCCN1CCN(c2ccc(F)cc2)CC1	-2	10	74	104	nt	i	0.83
CCC1(C)Cc2ccccc2/C(=C/C(=O)N2CCCCC2)N1 (stereo unspecified)	-3	nt	nt	96	-1.4	i	0.97
CCCS(=O)(=O)c1c(S(=O)(=O)CCC)c2c(N)cccn2c1C(=O)c1ccc(OC)cc1	-1	nt	nt	112	nt	i	1.2
CCOC(=O)CNC(=O)Nc1nnc(-c2ccc(OCC)cc2)o1	1	33	122	66	0.1	i	0.9
COc1ccccc1-c1nn2c(=O)cc(C)nc2s1	-4	38	230	105	-3.4	nt	nt
S=c1[nH]ncn1/N=C/c1cccs1	nt	nt	nt	98	nt	i	0.92
CC1(C)CC(=O)c2cnc(NC(=O)c3ccco3)nc2C1	6	nt	nt	105	-1.2	i	1
Cc1ccc(NC(=O)CN(C)CC(=O)Nc2ccccc2C(=O)Nc2ccccc2)cc1	1	-250	87	107	nt	i	0.66
COC(=O)C(C(=O)OC)c1ccccc1[N+](=O)[O-]	-6	-3	197	102	-2.5	i	1.1
COc1cccc(C(=O)NC(=S)Nc2ccc(Cl)c(C(=O)O)c2)c1	4	13	109	99	-2.2	i	0.98
CCC(=O)Nc1ccc(-c2cc(-c3ccccc3)nc(-c3ccc(NC(=O)CC)cc3)n2)cc1	3	20	101	99	-1.1	i	0.9
CC(=O)NC(=S)Nc1ccc(S(=O)(=O)Nc2nc(C)cc(C)n2)cc1	5	0	89	97	nt	i	0.88
Cc1cc(NS(=O)(=O)N(C)C)ccc1C(C)C	0	-57	67	97	-0.3	i	0.79
Cn1c(=O)[nH]c(=O)c2c1nc(Br)n2CC(O)COc1ccc(Cl)cc1 (stereo unspecified)	-8	nt	nt	111	nt	i	1
NC(=O)[C@@H]1CCNc2c(I)cc([N+](=O)[O-])cc2C(=O)N[C@@H](CCC(=O)O)C(=O)N[C@@H](CO)C(=O)N1	7	-5	116	404*[activator]	-0.8	i	0.98
Cc1ccc(C(=O)O/N=C2\CCCc3ccccc32)cc1	-9	13	106	101	-0.8	i	0.87
O=C(NNC(=O)c1sc2cccc(Cl)c2c1Cl)Nc1ccccc1	-5	8	63	102	-3.5	i	0.95
Cn1nnc(C(O)CNCc2cccs2)n1 (stereo unspecified)	-2	-24	103	103	-4.2	i	0.82
CCc1c(C)sc(NC(=S)Nc2cccnc2)c1C(=O)OC	9	nt	nt	101	nt	i	1
O=C(NNC1=NS(=O)(=O)c2ccccc21)C1CC(=O)N(c2ccccc2)C1 (stereo unspecified)	-2	21	108	102	nt	i	0.97
COc1ccc(/C=N/n2cnc3c([nH]c4ccccc43)c2=O)cc1CO	nt	nt	nt	106	nt	i	1.1
Cc1cc(C)cc(Oc2nc(-c3ccccc3)cc(C)c2S(C)(=O)=O)c1	-4	71	64	102	-2.0	i	0.83
COc1ccc(Cn2c(C(F)(F)F)ccc(C(N)=O)c2=O)cc1	1	18	123	104	nt	i	0.97

Among those listed so far, 3 have an NH in an aromatic ring:
SMILES	PKD1 kinase inh	Insulin prom inh	Insulin prom inh cell count	RGS16-Gao HTS	GALR2 ag	HSV replic up	HSV replic up primary fold
S=c1[nH]ncn1/N=C/c1cccs1	nt	nt	nt	98	nt	i	0.92
Cn1c(=O)[nH]c(=O)c2c1nc(Br)n2CC(O)COc1ccc(Cl)cc1 (stereo unspecified)	-8	nt	nt	111	nt	i	1
COc1ccc(/C=N/n2cnc3c([nH]c4ccccc43)c2=O)cc1CO	nt	nt	nt	106	nt	i	1.1

(next part)
SMILES	PKD1 kinase inh	Insulin prom inh	Insulin prom inh cell count	RGS16-Gao HTS	GALR2 ag	HSV replic up	HSV replic up primary fold
COc1cc2nc(C3CCC3)n(NC(=O)C(OC(C)=O)c3ccccc3)c(=O)c2cc1OC (stereo unspecified)	-10	nt	nt	96	0.2	i	0.95
COc1ccc(-n2c(=S)[nH]c3sc4c(c3c2=O)CCN(C)C4)cc1	nt	nt	nt	93	nt	i	0.83
CCN(CC)C(=O)COc1ccc(-c2nnc(Nc3ccc(OC)c(C(=O)NC)c3)c3ccccc23)cc1	nt	nt	nt	97	nt	i	1
Cc1ccc(C(=O)CSc2ccc(-c3ccccc3)nn2)cc1	-2	nt	nt	93	-1.3	i	1.2
Cc1ccccc1-n1c(C)cc(/C=N/NC(=O)c2ccc(CN3CCOCC3)cc2)c1C	-1	35	153	110	0.2	i	1.1
CCOc1ccc(OCc2ccc(C(=O)N3N=C(C(F)F)CC3(O)C(F)F)o2)cc1 (stereo unspecified)	-3	-97	107	100	-0.6	i	1.1
COc1ccc(NC(=S)NCCN2CCC(C)CC2)cc1	3	nt	nt	104	nt	i	0.94
N#Cc1c(N)n(-c2ccccc2)c(=O)c2cc([N+](=O)[O-])ccc12	-3	-6	109	94	nt	i	0.92
Cc1ccc(Oc2nnc(-c3cccs3)c3ccccc23)cc1C	-13	33	104	94	-0.5	i	0.94
O=C(CS(=O)(=O)c1ccccc1)Nc1nc2ccccc2s1	6	nt	nt	107	nt	i	1.1
O=C(Nc1cccc(C(F)(F)F)c1)c1cc(Br)cc2c1OCC2	nt	nt	nt	108	nt	i	1
CCOc1ccc(N2C(=O)CN=C2Nc2ccccc2F)cc1	-3	14	106	100	-2.3	i	1.1
CC(=O)c1ccc(S(=O)(=O)N2CCNCC2)cc1	nt	nt	nt	100	nt	i	0.96
O=C(Nc1ccccc1-c1ccccc1)C(c1ccccc1)c1ccccc1	4	11	118	92	-1.6	i	1.1
COc1cc(/C=N/NC(=O)c2ccc(CN(C)S(=O)(=O)c3ccc(C)cc3)cc2)ccc1O	3	67	102	100	nt	i	0.88
c1ccc(-c2cc(CSc3nc4ccccc4[nH]3)on2)cc1	-16	-87	82	97	-2.1	i	0.98
Cc1ccc(S(=O)(=O)N(CCCO)Cc2cc3c(C)ccc(C)c3[nH]c2=O)cc1	-1	-9	76	103	-1.2	i	0.73
COc1cccc(-c2nn(C)c3sc(C(=O)N4CCOCC4)cc23)c1	11	nt	nt	108	-0.3	i	0.84
CCn1cc(C(=O)N2CC=C(c3ccccc3)CC2)c(=O)c2ccc(C)nc21	-8	nt	nt	102	-4.4	i	0.99
O=C1CCCC(=O)C1Sc1ccc(Cl)cc1	-6	nt	nt	100	nt	i	0.98
Cc1ccccc1N1CCN(CCCCN2C(=O)C3CCCN3C2=O)CC1 (stereo unspecified)	6	-8	110	111	0.3	i	0.96
O=[N+]([O-])c1ccccc1CSc1nc2ccccc2o1	5	0	157	105	-2.0	i	0.91
O=C(COc1nncc2ccccc12)Nc1c(F)c(F)c(F)c(F)c1F	1	33	109	97	nt	i	1
Cc1ccc(C(=O)N/C(=C\c2ccco2)C(=O)NCCCn2ccnc2)cc1	3	17	143	106	-1.3	i	1.1
CCOC(=O)c1sc(C)c2c(=O)n(CCCN3CCOCC3)cnc12	-10	nt	nt	98	-0.6	i	0.98
NC(=O)CSc1nnc(SCc2ccc(F)cc2)s1	-8	18	91	99	nt	i	1.1
O=S(=O)(NCC1CCCO1)c1ccc(S(=O)(=O)N(Cc2ccccc2F)C2CCCCC2)cc1 (stereo unspecified)	-1	-31	102	nt	0.3	i	1.1
CCN(CC)S(=O)(=O)c1ccc2c(c1)nc(CCC(=O)O)n2C	nt	nt	nt	97	nt	i	1.2
Cc1cc(NC(=O)COC(=O)c2oc3c(ccc4ccccc43)c2C)no1	-2	-415	78	103	5.1*	nt	nt
CC(=O)N1CCN(CC(=O)Nc2ccc3c(c2)CCC3)CC1	-1	-27	73	126	-1.3	i	1
CCn1c(CSc2nc(C)cc(C)n2)nnc1SCC(=O)N1CCCc2ccccc21	-11	nt	nt	98	-0.4	i	1.1
Cn1c(=O)c2c(nc(-c3ccccc3)n2C)n(Cc2ccccc2)c1=O	-1	42	107	123	1.4	i	0.94
COc1ccc(NC(=O)CCNC(=O)Cn2ccc3ccccc3c2=O)c(OC)c1	-1	37	143	100	0.4	i	0.82
Cc1nnc(SCC(=O)Nc2cc(C(C)(C)C)nn2-c2ccccc2)s1	-8	14	107	112	0.2	i	0.89
Cc1cc2ccccc2n1CCC(=O)O	-5	nt	nt	187	nt	i	1.2
CCn1c(SCC(=O)c2ccc(OC)cc2)nnc1C1CC1	-1	-15	99	102	0.6	i	0.87
Nc1nnnn1CC(=O)N/N=C/C=C/c1ccccc1	nt	nt	nt	98	nt	i	0.92
O=C(CNS(=O)(=O)c1ccccc1)OCC(=O)c1ccc([N+](=O)[O-])cc1	-2	-8	94	95	-1.4	nt	nt
O=C(CSc1ncn[nH]1)NCCc1ccccc1	2	-55	100	124	-0.3	i	1
CN/C(=C/[N+](=O)[O-])NCCSCc1ccc(CN(C)C)o1	-2	57	75	103	-1.4	i	0.94
CCn1nc(C(=O)Nc2cccc3ccccc23)c(Cl)c1Cl	5	nt	nt	86	-0.6	i	0.92
CCC(C)c1ccc(NC(=O)COC(=O)C2=COCCO2)cc1 (stereo unspecified)	-11	-16	107	87	-1.8	i	0.87
COc1ccc(Cl)cc1N1C(=N)SCC1=O	-8	nt	nt	113	nt	i	1
CC(C)(C)NC(=O)CSc1nnc(SCC(=O)NC(C)(C)C)s1	6	36	95	101	nt	i	0.9
Cc1ccc(-c2nnc(OCc3cccnc3)c3ccccc23)cc1	-3	nt	nt	107	nt	i	1.1
COc1ccc(CNC(=O)Nc2ccc(C)c(C)c2)cc1	5	nt	nt	94	nt	i	0.92
O=C(CCS(=O)(=O)c1ccc(Br)s1)Nc1ccccc1Br	7	14	152	113	nt	i	1
Nc1nc2n(n1)C(c1cccs1)CC(c1ccc(Br)cc1)N2 (stereo unspecified)	3	-18	43	100	-1.3	i	1

Three entries from above in a different format.
Values in the order – PKD1 kinase inh | Insulin prom inh | Insulin prom inh cell count | RGS16-Gao HTS | GALR2 ag | HSV replic up | HSV replic up primary fold
- Nc1nnnn1CC(=O)N/N=C/C=C/c1ccccc1
    nt | nt | nt | 98 | nt | i | 0.92
- O=C(CNS(=O)(=O)c1ccccc1)OCC(=O)c1ccc([N+](=O)[O-])cc1
    -2 | -8 | 94 | 95 | -1.4 | nt | nt
- O=C(CSc1ncn[nH]1)NCCc1ccccc1
    2 | -55 | 100 | 124 | -0.3 | i | 1

Remaining list, next part
SMILES	PKD1 kinase inh	Insulin prom inh	Insulin prom inh cell count	RGS16-Gao HTS	GALR2 ag	HSV replic up	HSV replic up primary fold
O=C(CSc1nc2nc(-c3cccs3)cc(C(F)(F)F)c2c(=O)[nH]1)Nc1ccc(F)c(F)c1	2	35	67	143	nt	i	0.73
CCOC(=O)C1=C(C)NC2=C(C(=O)CCC2)C1c1ccc(N(C)C)cc1 (stereo unspecified)	0	30	113	105	0.4	i	0.99
CC(C)(C)c1ccc(OCC(=O)N2CCN(C=O)CC2)cc1	6	5	102	106	1.3	i	0.95
COc1ccccc1N1CCN(S(=O)(=O)c2cccc(F)c2)CC1	-3	53	90	107	-2.8	i	0.85
O=C1CC(Sc2ccc(Cl)cc2)C(=O)N1c1ccc2c(c1)OCCO2 (stereo unspecified)	nt	nt	nt	100	nt	i	0.9
Cc1cccc(NC(=O)c2ccccc2C(=O)O)c1	-2	33	76	99	-0.3	i	0.9
COc1cc(/C=C/C(=O)O)cc(S(=O)(=O)N(C)CCO)c1OC	-4	-44	77	99	-1.7	i	0.98
Cc1cc(/C=N\O)c(C)n1-c1ccncc1	-4	-29	32	105	-1.7	nt	nt
CSc1ccccc1NC(=O)CN(C)S(=O)(=O)c1ccc(F)cc1	-1	29	142	97	-1.6	i	0.74
Fc1ccc(OCCCCCCN2CCCC2)cc1	-3	nt	nt	94	-2.8	i	0.91
CCCN(C#N)c1nc(NCC)nc(NC(C)C)n1	-10	20	233	115	0.8	i	0.98
Cc1cc(C(=O)OC(C(=O)Nc2ccc(C)c(Cl)c2)c2ccccc2)c(C)o1 (stereo unspecified)	9	24	123	100	-0.9	i	0.95
CCOC(=O)CNC(=O)CSc1nc(C)cc(C)c1C#N	8	nt	nt	105	-1.3	i	0.88
O=S(=O)(c1cccc(-c2n[nH]c(=S)n2Cc2ccccc2)c1)N1CCOCC1	nt	nt	nt	102	nt	i	1
CN(C)C(=O)c1ccc(COc2ccccc2Br)o1	-1	-421	48	99	-1.7	i	0.91
CCC(C)n1c(=N)c(C#N)cc2c(=O)n3cccc(C)c3nc21 (stereo unspecified)	-4	43	105	99	nt	i	0.87
O=C(c1ccccc1)N1CCCCC(Sc2nnnn2-c2ccccc2)C1=O (stereo unspecified)	5	-17	61	100	-0.9	i	0.87
O=c1cc(-c2ccccc2)nc2nc(-c3ccco3)[nH]n12	-7	-100	73	84	-2.9	i	0.99
OCCN(CCO)c1ccc2ccccc2c1	-9	14	83	99	nt	i	1

Bioassay records deposited in PubChem by several laboratories.
